Source: PubChem BioAssay (several laboratories)
PABP polyA inh – PABP poly(A) RNA binding inhibitors, primary screen, biochemical, fluorescence polarization, uHTS | Polyadenylate-binding protein 1 (Homo sapiens), P11940 | inhibition, % at 35 µM | actives 1% (n = 290,000) | AID 2014, 2009;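 active means 50% or more with normal probe brightness, or confirmed in later tests; inconclusive means above 50% with abnormal brightness, or retests that disagree; inactive means below 50% or failed in later tests; about a fifth of its hits are not listed in these tables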;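 further: calls also rest on retests at 20 µM and on dose response follow-up; controls were probe without protein and protein plus probe with vehicle; some compounds called inactive have numbers as strong as hits; many hits fall short of the cut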
Target sequence (P11940 whole entry, looked up): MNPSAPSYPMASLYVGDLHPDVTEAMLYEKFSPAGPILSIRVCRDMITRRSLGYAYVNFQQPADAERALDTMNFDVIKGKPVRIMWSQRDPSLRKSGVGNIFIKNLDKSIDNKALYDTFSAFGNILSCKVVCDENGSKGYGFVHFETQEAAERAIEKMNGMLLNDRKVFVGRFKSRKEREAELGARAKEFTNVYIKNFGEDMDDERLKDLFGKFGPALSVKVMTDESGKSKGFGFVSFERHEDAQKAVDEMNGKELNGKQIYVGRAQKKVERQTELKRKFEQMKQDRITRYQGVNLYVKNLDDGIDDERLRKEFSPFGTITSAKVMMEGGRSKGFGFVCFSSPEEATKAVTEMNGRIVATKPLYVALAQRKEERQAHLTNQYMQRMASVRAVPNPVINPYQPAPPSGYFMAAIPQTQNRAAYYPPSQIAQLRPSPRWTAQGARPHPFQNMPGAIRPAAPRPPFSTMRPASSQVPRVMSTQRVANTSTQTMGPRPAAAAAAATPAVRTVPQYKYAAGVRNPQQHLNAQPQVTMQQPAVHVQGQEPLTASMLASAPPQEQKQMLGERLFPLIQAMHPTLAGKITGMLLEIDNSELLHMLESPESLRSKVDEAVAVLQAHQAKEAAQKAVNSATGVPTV
eIF4H FP inh – human eIF4H binding inhibitors, primary screen, translation initiation inhibitor project, biochemical, uHTS, fluorescence polarization; Eukaryotic translation initiation factor 4H (Homo sapiens), Q15056; eIF4H fluorescence polarization binding assay; inhibition, % at 35 µM; actives 0.94% (n = 290,000); AID 2012, 2009;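 active means 50% or more with normal probe brightness, or confirmed in later tests; inconclusive means above 50% with abnormal brightness, or retests that disagree; inactive means below 50% or failed in later tests; about a fifth of its hits are not listed in these tables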;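 further: calls also rest on retests at 20 µM and on dose response follow-up; 0% = protein and probe with vehicle and 100% = probe without protein; strong numbers were not always called active; many hits fall short of the cut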
HIV Env fusion – inhibitors of HIV-1 Env-driven cell-cell fusion, primary screen, HeLa-JRFL effector, CEM21 target cells, luciferase. inhibition, % at 12.3 µM. actives 1.1% (n = 360,000). AID 651610, 2012;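 active means mean replicate inhibition score of at least 50 and every replicate individually at or above 50; inconclusive means only one of the two criteria met; inactive means mean below 50 and not all replicates reaching 50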;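 further: 0% = plate neutral controls and 100% = maraviroc near 300 nM; one replicate is shown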
Rce1 inhib – yeast Rce1p protease inhibitors, primary screen, biochemical, fluorescence, cell-free homogeneous; AID 2563, 2010; CAAX prenyl protease 2 (Saccharomyces cerevisiae (strain ATCC 204508 / S288c)), Q03530; yeast membranes, quenched prenylated peptide cleavage fluorescence; calls only; actives 0.27% (n = 290,000);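 active means fall in fluorescence gain of 50% or more versus controls, with final raw signal at or below 3038400; inconclusive means same 50% fall but final raw signal above 3038400; inactive means fall in fluorescence gain under 50%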;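 further: plate controls were neutral control wells for no effect and wells lacking membranes for full effect; tested at 10 µM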
Yeast UUG start – modulators of yeast start codon fidelity, primary screen, whole organism, S. cerevisiae, single point, plate reader. actives 0.13% (n = 350,000). activity score, % at 18.7 µM. S. cerevisiae UUG-firefly luciferase reporter, luminescence/redox ratio;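 active means replicate mean at a twofold rise or more, about +100% in these data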;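 further: firefly luciferase made from a UUG start codon reports start codon fidelity; reporter light over untreated wells divided by growth signal over untreated wells; some hits fall short of that in this replicate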
CSC inhib – cancer stem cell viability inhibitors, primary screen, luminescence; cancer stem cell-like cells viability; inhibition, % at 7.5 µM; actives 1.1% (n = 300,000);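 active means mean at 75% or more and at least half the replicates too; inconclusive means mean and replicates disagree; tested in HMLE shEcad cells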;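 further: 0% = median of negative and 100% = median of positive control wells; the first replicate is given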
MT1-MMP act inh – blockers of MT1-MMP proenzyme processing, primary screen, HT1080 RFP-PRO-GFP cells, GFP/RFP fluorescence; actives 0.061% (n = 360,000); Matrix metalloproteinase-14 (Homo sapiens), P50281; GFP/RFP ratio fluorescence, overnight; percent of plate control window, DMSO zero; GFP/RFP ratio change, % at 20 µM;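 active means GFP/RFP ratio change of at least 30% with cell ATP level not reduced by more than half and red fluorescence within 50% of control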; further: strong numbers were not always called active
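Assay system: HT1080 RFP-PRO-GFP cells. Benchmarks: DMSO vehicle wells and RFP-L50D-GFP reporter cell wells. Times: overnight cell settling, then overnight compound exposure, 37 °C, 5% CO2. Compound: 20 µM single dose, 1% DMSO. Read-out basis: GFP/RFP fluorescence ratio.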
MT1-MMP act inh RFP – recorded beside MT1-MMP act inh, whose call it bears; RFP signal change, %; measured here: RFP expression control read;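 0 = vehicle wells; hits needed this value within 50% of zero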
Active calls of the source: *; i = inactive; ? = inconclusive; · = no result given. A portion of the library, so the mix of outcomes need not match the whole.

Start of the listing, in advance:
SMILES	PABP polyA inh	eIF4H FP inh	HIV Env fusion	Rce1 inhib	Yeast UUG start	CSC inhib	MT1-MMP act inh	MT1-MMP act inh RFP
CSCC[C@H](NC(=O)C1CCCC1)c1nc2ccccc2[nH]1	-7.1	-2.1	-3.3	i	·	·	-3.1	-1.2
O=C1CC[C@@H](C(=O)N2CSC[C@@H]2C(=O)Nc2cccc(C(F)(F)F)c2)N1	·	·	4.7	·	1.4	·	-5.7	0.4
COc1cccc(C(=O)Nc2nnc(-c3ccccc3)s2)c1OC	1.5	1.0	-174.0	i	-13.1	·	-3.8	0.8

Results, repeating the preview:
SMILES	PABP polyA inh	eIF4H FP inh	HIV Env fusion	Rce1 inhib	Yeast UUG start	CSC inhib	MT1-MMP act inh	MT1-MMP act inh RFP
CSCC[C@H](NC(=O)C1CCCC1)c1nc2ccccc2[nH]1	-7.1	-2.1	-3.3	i	·	·	-3.1	-1.2
O=C1CC[C@@H](C(=O)N2CSC[C@@H]2C(=O)Nc2cccc(C(F)(F)F)c2)N1	·	·	4.7	·	1.4	·	-5.7	0.4
COc1cccc(C(=O)Nc2nnc(-c3ccccc3)s2)c1OC	1.5	1.0	-174.0	i	-13.1	·	-3.8	0.8
CN(C)S(=O)(=O)c1ccc(/C(O)=C2/C(=O)C(=O)N(CCCN3CCOCC3)C2c2ccncc2)cc1 (stereo not drawn)	·	·	5.2	i	-7.8	-2.9	-8.2	-3.7
COc1ccc(Br)cc1CNC(=O)C1CCCN(S(C)(=O)=O)C1 (stereo not drawn)	-4.7	-0.3	-5.5	i	-16.4	-5.8	3.4	-6.0
O=C(NCc1ccccc1Cl)c1cccc(C(F)(F)F)c1	13.2	5.5	·	i	-7.7	-1.2	2.4	-4.0
CCOC(=O)N1CCN(C(=O)c2cc(C)c3c(C)nn(-c4ccccc4)c3n2)CC1	-1.9	-1.1	2.1	i	-0.3	-0.4	12.3	2.6
Cc1ccc(-c2noc(CNS(=O)(=O)c3ccccc3)n2)cc1	-8.1	-4.5	8.3	i	6.6	-8.1	-2.8	2.1
O=C1CC(N2CCOCC2)C(=O)N1Cc1ccc(N2CCCC2=O)cc1 (stereo not drawn)	5.0	-8.1	·	i	-9.3	-7.9	-3.4	-0.3
CCN(CC(=O)Nc1cc(Cl)ccc1-n1cncn1)Cc1nc2ccccc2c(=O)[nH]1	·	·	5.9	·	-28.1	-17.9	-2.4	3.2
O=C1c2cccc3cccc(c23)C(=O)N1Cc1cccnc1	3.4	-14.0	7.0	i	·	-2.0	-1.1	-7.0
O=C(Nc1ccc(F)cc1)c1ccc(S(=O)(=O)NCc2cccnc2)cc1	-7.9	10.1	-6.3	i	-18.7	4.0	2.8	-18.4
CCOC(=O)c1nn(-c2cccc(Cl)c2)c(C)c1C(C)=O	6.1	-1.7	-4.9	i	2.5	1.1	8.4	5.1
N#C/C(C(=O)N1CCCCC1)=C1/N=C(N)c2ccccc21	-10.7	3.9	·	i	·	-7.1	0.1	1.9
COC(=O)COc1ccc(S(=O)(=O)N2CCCCCC2)cc1C	8.6	0.9	0.1	i	-4.3	-0.6	-1.0	-0.4
COc1ccccc1-c1ccccc1C1=CC(=O)CC(C)(C)C1=O	·	·	-12.5	·	-8.6	·	0.7	0.6
COc1ccc(CC(=O)Nc2ccc(S(=O)(=O)Nc3onc(C)c3C)cc2)cc1OC	3.8	-2.3	-4.5	i	-11.5	·	0.0	1.6
NN(Cc1ccccc1)C(=S)Nc1ccc(Cl)c(Cl)c1	-4.1	-2.8	13.2	i	-23.9	·	-0.8	0.2
CCOC(=O)c1cnn(CCOC(=O)C(C)(C)C)c1NC(=O)C(C)(C)C	-5.0	-2.9	-33.3	i	-16.8	1.6	12.2	4.2
COCCCNC(=O)Cn1c(=O)n(CCCCCC(=O)Nc2ccccc2)c(=O)c2sccc21	-0.1	2.1	·	i	·	-23.1	-0.2	4.2
O=C(Nc1cc(C(=O)N2CCCC2)ccc1N1CCCC1)C1CC1	9.1	-2.6	1.5	i	-2.3	-13.7	-6.6	2.6
CCCCCCC(=O)N(O)C1CC(=O)N(c2ccc(C)cc2)C1=O (stereo not drawn)	-12.6	-9.3	?	i	1.0	7.9	3.4	6.7
Cc1cc(N2CCN(C(=O)c3ccco3)CC2)n2nc(-c3cccc(Cl)c3)cc2n1	-15.2	-1.2	·	i	·	33.1	7.2	-18.5
CC(C)NC(=O)CC(c1ccccc1)c1cc(Br)ccc1O (stereo not drawn)	5.2	1.9	·	i	·	5.6	-3.4	-1.3
CC1=CC2=NC(=O)/C(=C\c3ccc(OC(=O)c4ccco4)cc3)C(=N)N2O1	2.7	1.9	-4.5	i	·	·	-13.9	-2.9
CCOc1cc(-n2nc(C)c(C#N)c2N)nc(SC)n1	6.0	6.5	-19.1	i	·	·	·	·
COc1ccccc1NC(=O)C(=O)NCC1COc2ccccc2O1 (stereo not drawn)	-0.9	-4.5	·	i	7.2	10.1	-2.2	-1.0
Cc1ccc2nc(SCC(=O)NC(=O)NCc3ccco3)[nH]c2c1	0.6	7.9	-47.3	i	-22.7	-3.3	-5.7	-8.6
O=C1CN(C(=O)COC(=O)CCc2ccccc2)c2ccccc2N1	·	·	-12.7	·	-11.8	-17.6	-2.4	-1.1
COc1cc(NC(=O)c2ccc(COc3ccccc3Br)o2)cc(OC)c1OC	3.8	8.6	-10.0	·	10.9	55.1	8.5	-1.7
CN1CCN(C(=O)CSc2nc(-c3ccco3)cc(C(F)(F)F)n2)CC1	-16.3	-3.5	-1.4	i	0.6	·	-2.0	3.4
COc1ccc(OCCCCn2c(CO)nc3ccccc32)cc1	3.0	2.6	5.7	i	-10.4	-8.4	-1.9	-13.2
CCOc1ccc(N/C(C)=C\C(=O)c2ccc3c(c2)OCCO3)cc1	4.3	2.5	-46.1	i	·	15.8	4.1	0.7
O=C1CSC(c2ccccc2Cl)N1 (stereo not drawn)	-8.0	-1.6	-3.7	i	-24.1	0.1	-1.6	-3.8
COc1ccc(NC(=O)C(C)N2c3cccc4cccc(c34)S2(=O)=O)cc1 (stereo not drawn)	0.8	-5.8	·	i	0.8	·	2.7	1.1
CCOC(=O)c1nc(Nc2cccc(C)c2)c2ccccc2n1	-4.7	-1.1	-1.4	i	·	-0.5	-0.5	-4.9
Cc1ccc(C2=CC(=O)C[C@H](c3ccc(Cl)cc3)C2)cc1	·	·	·	·	-22.2	9.4	4.1	-0.7
O=c1[nH]c2ccccc2s1	15.5	2.1	·	i	-14.7	-6.0	-1.8	2.2
Cn1ccc2c(N3c4ccccc4CCc4ccccc43)cc3c(c21)C1CCC3O1 (stereo not drawn)	·	·	-3.9	·	-41.2	·	6.0	-3.6
C=C1CC[C@@H]2[C@](C)(CO)[C@H](O)CC[C@@]2(C)[C@@H]1/C=C/C1=CCOC1=O	7.7	2.8	6.5	i	14.2	-3.3	-0.1	-5.6
CC(Sc1nnc(CN2CCCC2)n1Cc1ccccc1)C(=O)Nc1ccc(F)c(F)c1F (stereo not drawn)	·	·	51.4	·	-20.1	·	-4.9	-10.6
COc1cc(/C=N/OCC(=O)NC23CC4CC(CC(C4)C2)C3)ccc1OCc1ccccc1	0.2	-13.2	13.1	i	7.1	55.7	-50.4	-40.7
O=C(CCS(=O)(=O)c1ccc(Br)s1)NCc1ccc2c(c1)OCO2	9.9	8.7	·	i	·	14.4	3.1	2.0
Cc1cc(C)n(C(=O)CCN2C(=O)c3ccccc3C2=O)n1	-4.0	-1.4	·	i	-9.7	·	1.3	5.0
COc1c(O[C@@H]2O[C@H](CO)[C@@H](O)[C@H](O)[C@H]2O)cc2c(c1OC)-c1ccc(SC)c(=O)cc1C(NC(C)=O)CC2 (stereo partly drawn)	·	·	-16.1	·	-8.3	·	2.9	-4.8
COCc1ccc(-c2c(-c3cc(OC)cc(OC)c3)oc(=O)c3cc(OC)c(OC)cc23)cc1	·	·	-15.1	·	14.0	3.2	0.7	-6.6
COc1ccnc(-n2cccc2C#N)c1C#N	4.9	2.3	-2.8	·	·	-8.8	-5.2	-0.5
Cc1ccc(NC(=O)c2oc3ccccc3c2C)nc1	9.8	4.0	·	i	-2.1	9.7	2.1	2.8
O=C(Nc1ccccn1)c1ccc(S(=O)(=O)N2CCCCC2)cc1	·	·	-21.8	i	-10.8	-9.4	1.8	-0.5
O=C(Nc1c(-c2ccccc2)nc2ccccn12)c1ccccc1F	-6.0	-6.1	-292.4	i	-3.4	-8.4	3.4	1.3
COC(=O)c1cc(Br)c(=O)n(CCN2CCOCC2)c1	-2.1	5.2	·	i	-23.6	-4.1	-1.6	3.4
COc1ccc(OC)c(/C=C2\SC(N3CCCCC3)=NC2=O)c1	-5.5	-12.5	0.3	i	-21.1	-8.7	-0.6	-0.9
CC(=O)N1[C@H](C)C=C[C@]1(Cc1ccccc1)C(=O)NCCN1CCOCC1	·	·	9.6	i	-16.0	-4.9	0.6	3.3
COc1cccc(N=Nc2c(=O)[nH]n3c(C)cc(C)nc23)c1	-8.0	-3.3	-33.7	i	·	19.8	21.9	9.1
CCn1cc(C(=O)N2CCCc3ccccc32)c2cc(OC)c(OC)cc2c1=O	2.6	4.5	-15.1	i	4.8	-8.5	-0.9	1.6
CCCCC(=O)NC1(C(F)(F)F)C(=O)N(CC(C)C)C2=C1C(=O)CC(C)(C)C2 (stereo not drawn)	1.4	-12.7	·	·	29.8	·	1.6	-0.8
Cc1ccc(C(C(=O)NC(C)(C)C)N(Cc2ccco2)C(=O)CCC(=O)Nc2ccccn2)cc1 (stereo not drawn)	10.7	-4.6	4.0	i	-13.6	-19.3	-1.1	3.1
CCOc1ccc(S(=O)(=O)NC(Cc2c[nH]c3ccccc23)C(=O)O)cc1 (stereo not drawn)	8.6	-1.4	-7.3	i	0.0	0.0	-3.4	-1.8
Fc1ccc2nc(-c3ccccc3)nc(SCc3nnc(-c4ccccc4)o3)c2c1	-6.4	1.6	-9.4	i	-16.5	-6.3	-5.3	-2.1
Cc1ccc(OC(C)C(=O)N2CC(=O)Nc3ccccc32)c(C)c1 (stereo not drawn)	0.1	-6.2	-6.2	i	-2.1	·	-4.3	-1.9

Next part.
SMILES	PABP polyA inh	eIF4H FP inh	HIV Env fusion	Rce1 inhib	Yeast UUG start	CSC inhib	MT1-MMP act inh	MT1-MMP act inh RFP
N#Cc1ccccc1OCC(=O)OCC(=O)N1CCN(C(=O)c2ccco2)CC1	1.5	7.6	-4.2	·	·	-9.8	0.0	1.0
O=C1C=CC(=O)N1Nc1ccc(Br)cc1	-12.6	-5.8	4.0	i	·	-14.9	2.0	2.9
Cc1nnc(SC(C)C(=O)Nc2ccc(S(=O)(=O)NC3CCCCC3)cc2)s1 (stereo not drawn)	-4.9	2.3	·	i	23.9	-4.5	·	·
O=C(CSCc1c[nH]c(=O)[nH]c1=O)OCC(=O)c1ccc(Br)cc1	-16.7	3.4	14.1	i	·	-7.9	1.0	4.8
Cc1nc(-c2ccc(C(=O)N3CCOCC3)cc2)cs1	11.8	10.4	·	i	0.9	-4.7	1.0	5.7
